Screening data as filed in PubChem.
BasE inh – blocks the Acinetobacter baumannii siderophore enzyme BasE. 0.1% of 84,000 active. inhibition, % (test concentration not listed). purified BasE, fluorescence polarization binding displacement. AID 485350;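 active means both replicates above 25% with normal brightness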;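 further: 0% = negative plate control signal and 100% = positive plate control signal; stock transfer was 100 nL into about 30 µL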
LANA-nucl inh – LANA-nucleosome interaction inhibition. FITC-LANA1-23 / chicken nucleosome fluorescence polarization; hits give low values. AID 720717. 0.3% of 51,000 active. z-score (no concentration beside the values);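 active means both repeat wells score below -2 in polarization z-score versus plate sample wells, excluding overly bright wells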;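 further: 100 nL library stock added to about 30 µL; numbers are from one replicate; some results filed as inactive read as strong as hits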
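Assay system: purified chicken nucleosomes with FITC-labelled LANA N-terminal peptide (1-23) / Probe or stimulus: 50 nM FITC-LANA1-23 probe / Compound dosing: pin-transferred compound, 100 nL / Times: compound with peptide–nucleosome mix 10–45 min at room temperature / Technique: fluorescence polarization, 480 nm excitation, 535 nm parallel and perpendicular emission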
* hit, by the source's call.

What do the screens show for `CCOC(=O)CN1CC23C=CC(O2)C(C(=O)NCc2ccc(C)cc2)C3C1=O` (stereo not given)?
BasE inh: -3.0; LANA-nucl inh: 2.3

What do the screens show for `Fc1cccc(NC(=S)NCc2ccc3c(c2)OCO3)c1`?
BasE inh: 1.4

How did O=S1(=O)CCC(c2ccccc2)C1 (stereo not given) do in these assays?
BasE inh: -0.5; LANA-nucl inh: 0.13

Results for CCOC(=O)CSc1nc(C(C)(C)C)cc(C(F)(F)F)c1C#N ?
BasE inh: 3.7; LANA-nucl inh: -0.048

How did CCN(C(=O)Cn1ncc2c(=O)oc3ccc(C)cc3c21)c1ccccc1 do in these assays?
BasE inh: 0.8; LANA-nucl inh: 0.53

How did Cc1ccc(-c2nc(I)ccc2O)cc1 do in these assays?
BasE inh: 0.6; LANA-nucl inh: 1.9

How did Cn1nc(CC(=O)Nc2nc(-c3ccccc3)cs2)c2ccccc2c1=O do in these assays?
BasE inh: 0.9

Results for COC(=O)c1ccc(S(=O)(=O)N2CCN(C)CC2)n1C ?
BasE inh: 1.6; LANA-nucl inh: -1

How did CCCNC(=O)c1ccc2c(c1)C(=O)N(CC(C)C)C2=O do in these assays?
BasE inh: -0.4; LANA-nucl inh: -1.4

What do the screens show for `COc1ccc(-c2nn(-c3ccccc3)cc2/C=N/O)cc1`?
BasE inh: 1.6

Results for COC(=O)C(CC(=O)c1ccc(Br)cc1)c1ccccc1 (stereo not given) ?
LANA-nucl inh: -0.58

What do the screens show for `COc1ccc(CN(Cc2ccco2)C(=O)c2cc3ccccc3oc2=O)c(OC)c1`?
BasE inh: 2.2; LANA-nucl inh: 0.065

How did CCCn1nc(C(=O)NC2CCC(C)CC2)ccc1=O (stereo not given) do in these assays?
BasE inh: -0.1

How did S=c1n(CN2CCCC2)nc(C2COc3ccccc3O2)n1-c1ccccc1 (stereo not given) do in these assays?
BasE inh: 2.2

How did O=S(=O)(c1ccc(SCc2cc3c(cc2Br)OCCO3)nc1)N1CCOCC1 do in these assays?
BasE inh: 0.5

What do the screens show for `Cc1nn(-c2ccccc2)c2sc(C(=O)N3CCN(C)CC3)cc12`?
BasE inh: -4.0

How did C=CCN=c1scc(-c2ccco2)n1/N=C/c1cccs1 do in these assays?
BasE inh: -0.5

What do the screens show for `O=C(CSc1ccccc1)Nc1cccc(O)c1`?
BasE inh: 3.7; LANA-nucl inh: -0.19

What do the screens show for `S=c1nc(NC2CCCCC2)cn[nH]1`?
BasE inh: 0.9; LANA-nucl inh: -0.56

How did CCN(CC)S(=O)(=O)c1cccc(C2=N/C(=C\c3c(C)nn(-c4ccccc4)c3N3CCCC3)C(=O)O2)c1 do in these assays?
BasE inh: -6.8

How did COc1ccc(CCn2c(=S)[nH]c3cc(C(=O)N4CCOCC4)ccc3c2=O)cc1OC do in these assays?
BasE inh: 0.8; LANA-nucl inh: 0.98

What do the screens show for `CCN(c1ncnc2c1cnn2-c1cccc(Cl)c1)C1CCCCC1`?
BasE inh: 4.2; LANA-nucl inh: -0.87

Results for Cc1ccc2cc(C(=O)O)c(C)nc2c1 ?
BasE inh: 1.6

Results for CC(C)C1NC(=O)c2c(sc3c2CCCC3)N1 (stereo not given) ?
BasE inh: 0.5; LANA-nucl inh: -0.46

What do the screens show for `Cn1nc(SCC(=O)n2c3c(c4ccccc42)CCCC3)sc1=S`?
BasE inh: 1.5

Results for O=C(Nc1nn(Cc2c(F)cccc2Cl)cc1Br)C1CCCO1 (stereo not given) ?
BasE inh: 0.6; LANA-nucl inh: -1.2

How did O=C(CSc1nc2c(c(C(F)(F)F)n1)CCc1ccccc1-2)NCc1ccco1 do in these assays?
BasE inh: -0.9; LANA-nucl inh: -1.2

What do the screens show for `N=C1c2ccccc2CN1NC(=O)CSc1nc2ccccc2[nH]1`?
BasE inh: 2.2

What do the screens show for `C#CC(O)(c1ccccc1)c1ccccc1`?
BasE inh: -0.7; LANA-nucl inh: 1.1

What do the screens show for `CCc1ccc(NC(=O)CN2C=NS(=O)(=O)c3ccccc32)cc1`?
BasE inh: -1.8; LANA-nucl inh: 1.6

What do the screens show for `CSc1ccccc1NC(=O)C(C)OC(=O)c1nn(-c2ccccc2)nc1C` (stereo not given)?
BasE inh: 3.5

What do the screens show for `CC(C)C(C)NC(=O)COc1ccccc1C(N)=O` (stereo not given)?
BasE inh: 0.9

Results for Nc1ncnc2c1ncn2C1CCCO1 (stereo not given) ?
BasE inh: 1.4; LANA-nucl inh: 0.075

Results for CC(C)(C)C(=O)C(Cc1ccc(C#N)cc1)C(=O)C(C)(C)C ?
BasE inh: 0.6

What do the screens show for `COC(=O)c1[nH]c2ccccc2c1S(=O)c1ccccc1` (stereo not given)?
BasE inh: -1.9; LANA-nucl inh: -0.27

What do the screens show for `COc1ccc(CC2CC(=O)N(c3ccc(C)cc3)C2=O)cc1` (stereo not given)?
BasE inh: -3.0; LANA-nucl inh: 2.6

How did CCCC(=O)N(c1ccc(C)c(Cl)c1)C1C=CS(=O)(=O)C1 (stereo not given) do in these assays?
BasE inh: 2.0

What do the screens show for `O=C(NCCCN1CCCC1=O)C1CCCN(C(=O)N2CCOc3ccccc32)C1` (stereo not given)?
BasE inh: 0.7; LANA-nucl inh: -0.61

What do the screens show for `CC(=O)Nc1ccccc1C(=O)OCc1nnc(-c2ccccc2)o1`?
BasE inh: 3.5; LANA-nucl inh: -0.47

How did CCCCNC(=O)Cn1c(=O)cc(C)c2c(C)nn(-c3cccc(F)c3)c21 do in these assays?
BasE inh: 1.7; LANA-nucl inh: 0.04

13 entries out of the list, ordered by molecular weight, descending:
How did O=C(CSc1nc2c(c(C(F)(F)F)n1)CCc1ccccc1-2)NCc1ccco1 do in these assays?
BasE inh: -0.9; LANA-nucl inh: -1.2

What do the screens show for `O=C(NCCCN1CCCC1=O)C1CCCN(C(=O)N2CCOc3ccccc32)C1` (stereo not given)?
BasE inh: 0.7; LANA-nucl inh: -0.61

Results for O=C(Nc1nn(Cc2c(F)cccc2Cl)cc1Br)C1CCCO1 (stereo not given) ?
BasE inh: 0.6; LANA-nucl inh: -1.2

What do the screens show for `CSc1ccccc1NC(=O)C(C)OC(=O)c1nn(-c2ccccc2)nc1C` (stereo not given)?
BasE inh: 3.5

What do the screens show for `Cn1nc(SCC(=O)n2c3c(c4ccccc42)CCCC3)sc1=S`?
BasE inh: 1.5

How did CCCCNC(=O)Cn1c(=O)cc(C)c2c(C)nn(-c3cccc(F)c3)c21 do in these assays?
BasE inh: 1.7; LANA-nucl inh: 0.04

What do the screens show for `CCc1ccc(NC(=O)CN2C=NS(=O)(=O)c3ccccc32)cc1`?
BasE inh: -1.8; LANA-nucl inh: 1.6

What do the screens show for `CC(=O)Nc1ccccc1C(=O)OCc1nnc(-c2ccccc2)o1`?
BasE inh: 3.5; LANA-nucl inh: -0.47

What do the screens show for `COc1ccc(CC2CC(=O)N(c3ccc(C)cc3)C2=O)cc1` (stereo not given)?
BasE inh: -3.0; LANA-nucl inh: 2.6

Results for CC(C)(C)C(=O)C(Cc1ccc(C#N)cc1)C(=O)C(C)(C)C ?
BasE inh: 0.6

What do the screens show for `CC(C)C(C)NC(=O)COc1ccccc1C(N)=O` (stereo not given)?
BasE inh: 0.9

What do the screens show for `C#CC(O)(c1ccccc1)c1ccccc1`?
BasE inh: -0.7; LANA-nucl inh: 1.1

Results for Nc1ncnc2c1ncn2C1CCCO1 (stereo not given) ?
BasE inh: 1.4; LANA-nucl inh: 0.075

(next part)
What do the screens show for `Clc1ccc2nnn(OCCOc3ccc(Br)cc3)c2c1`?
BasE inh: -1.3

What do the screens show for `CC(=O)/C(C#N)=C(\N=C\N(C)C)SCc1c(Cl)cccc1Cl`?
LANA-nucl inh: 0.16

How did O=C1CCCCC1Sc1nnc(Nc2ccccc2)s1 (stereo not given) do in these assays?
BasE inh: -1.5

What do the screens show for `O=C(NC(C(=O)NC1=NCCS1)C12CC3CC(CC(C3)C1)C2)C1CCCCC1` (stereo not given)?
BasE inh: 1.7; LANA-nucl inh: 1.1

What do the screens show for `Cc1cc(Cl)ccc1OCC(=O)NCCOc1nc(N(C)C)nc(N2CCOCC2)n1`?
BasE inh: 2.0; LANA-nucl inh: 0.52

How did COc1cccc(C(=O)NCCCn2ccnc2)c1 do in these assays?
BasE inh: 0.9

Results for Cc1cc(C)n(CC(C)O)c(=O)c1C#N (stereo not given) ?
BasE inh: -3.9; LANA-nucl inh: 2.8

What do the screens show for `c1nc(N2CCC3(CC2)OCCO3)c2[nH]cnc2n1`?
BasE inh: -6.1; LANA-nucl inh: 1.7

How did Cc1c2c(=O)n(-c3ccccc3)[nH]c2cc(=O)n1CCc1ccccc1 do in these assays?
BasE inh: 1.8; LANA-nucl inh: 0.42

What do the screens show for `CC12CCC(C/C1=N\N=C1/NC(=O)C(CC(=O)NC(N)=O)S1)C2(C)C` (stereo not given)?
BasE inh: 0.5; LANA-nucl inh: -0.39

Results for CSc1ccc(S(=O)(=O)N2CCC(C(=O)N(C)C)CC2)cc1 ?
BasE inh: -0.8; LANA-nucl inh: -0.95

What do the screens show for `COc1ccc(C2=NOC(C(=O)N(C)c3ccccc3)C2)cc1OC` (stereo not given)?
BasE inh: -1.6; LANA-nucl inh: -1.5

Results for CC1CS(=O)(=O)CCO1 (stereo not given) ?
BasE inh: 1.0; LANA-nucl inh: -0.43

What do the screens show for `CCOc1cccc(CO)c1OCc1ccccc1`?
BasE inh: 2.7

How did CN1CCN(NC(=O)CN2C(=O)S/C(=C/c3ccc(Cl)cc3)C2=O)CC1 do in these assays?
BasE inh: 1.6

Results for Cc1ccc2nc(NN)nc(-c3ccccc3)c2c1 ?
BasE inh: 1.6; LANA-nucl inh: -0.63

How did CC1(C)CC(=O)C2(CNC3=C(C2)C(=O)CC(C)(C)C3)C(=O)C1 do in these assays?
BasE inh: 1.3; LANA-nucl inh: 0.27

How did N#Cc1cc2c(OCC(O)CN3CCN(C(c4ccccc4)c4ccccc4)CC3)cccc2[nH]1 (stereo not given) do in these assays?
BasE inh: 2.5; LANA-nucl inh: -0.88

Results for CC1=C(C#N)/C(=C/Nc2ccc(F)cc2)CC(=O)N1 ?
LANA-nucl inh: -0.8

Results for O=c1[nH]c(-c2ccccc2)nnc1/C=C(\O)c1cccs1 ?
BasE inh: 4.0

How did O=C(Nc1cccc(-c2nn3cnnc3s2)c1)c1cccnc1 do in these assays?
BasE inh: 4.2; LANA-nucl inh: -0.62

How did COc1ccc(/C=N/c2nnc(SC)s2)c(O)c1 do in these assays?
BasE inh: -0.5; LANA-nucl inh: 0.33

Results for COC(=O)CNC(=O)c1ccc(COC(C)=O)cc1 ?
BasE inh: -0.4

How did CCOCc1[nH]c(=S)[nH]c(=O)c1Cc1ccc(OCC)cc1 do in these assays?
BasE inh: -1.4; LANA-nucl inh: 1.6

How did COc1ccc(-c2nn(C)c3sc(C(=O)NCCN4CCN(c5ccccc5F)CC4)cc23)cc1OC do in these assays?
BasE inh: -0.5; LANA-nucl inh: -0.25

What do the screens show for `N#Cc1ccc(CSc2n[nH]c(=O)n2CCc2ccccc2)cc1`?
BasE inh: -0.3

Results for N#CCN(CC#N)C(=O)C1c2ccccc2Oc2ccccc21 ?
BasE inh: -2.5; LANA-nucl inh: 0.46

How did COc1ccc(C(=O)N(CCCCN2C(=O)c3ccccc3C2=O)c2ccc(C)cc2)cc1 do in these assays?
BasE inh: 1.6

Results for Cc1cccc(-c2cc(N)n(-c3ccccc3)n2)c1 ?
BasE inh: 0.1

Results for CC1(C)C=Cc2c(ccc3ccc(=O)oc23)O1 ?
BasE inh: -3.2; LANA-nucl inh: 2.2

What do the screens show for `CC(=O)N1CCc2cc(NC(=S)NC3CCCCCC3)ccc21`?
BasE inh: -1.7

How did CCc1cccc2c(C(=O)C(Sc3nnc(CN4CCCC4=O)o3)c3ccccc3)c[nH]c12 (stereo not given) do in these assays?
BasE inh: 0.1

Results for CSc1cccc(-n2cc3ccsc3c2)c1 ?
LANA-nucl inh: -0.67

Results for Cn1ccnc1Sc1cnc(SCc2ccc(Cl)cc2)nc1-c1ccccc1 ?
BasE inh: 1.1

What do the screens show for `Cc1ccc(N2CC(NC(=O)Nc3ccc(C(N)=O)cc3)CC2=O)cc1C` (stereo not given)?
BasE inh: -23; LANA-nucl inh: -1.7

Results for OC12CC3CC(C1)C1(NCCS1)C(C3)C2 (stereo not given) ?
BasE inh: 1.8; LANA-nucl inh: -0.084

How did O=C(CSc1nc2c(c(=O)n1Cc1ccccc1)SCC2)NCc1ccco1 do in these assays?
BasE inh: 0.5; LANA-nucl inh: -0.31

What do the screens show for `CC(C#N)(NC(=O)COc1ccc(C#N)cc1)C1CC1` (stereo not given)?
BasE inh: 3.5

What do the screens show for `Cc1cc(C)n2nc(C)cc2n1`?
BasE inh: 1.1; LANA-nucl inh: -0.47

What do the screens show for `COc1ccc2c(COC(=O)c3c(-c4ccccc4)noc3C)cc(=O)oc2c1`?
BasE inh: 2.2

Results for S=C(Nc1ccc(Cl)cc1)N1CCSC1c1ccc(Br)cc1 (stereo not given) ?
BasE inh: 2.8

Results for CCSc1nnc(SC(C)C(=O)Nc2ccc(C#N)cc2)s1 (stereo not given) ?
BasE inh: 3.7

What do the screens show for `c1ccc(OCc2nnc3n2CCCCC3)cc1`?
BasE inh: 0.1; LANA-nucl inh: -0.65

How did COc1ccccc1OCc1cccc(C(=O)N2CCCCCC2)c1 do in these assays?
BasE inh: 0.3; LANA-nucl inh: -0.18

How did CC(C(=O)Nc1ccc2c(c1)OCCO2)n1sc2ccccc2c1=O (stereo not given) do in these assays?
BasE inh: -0.6; LANA-nucl inh: -1.1

How did Nc1c(-c2ccccc2)cnn1-c1ccc(C(=O)O)cc1 do in these assays?
BasE inh: 0.7; LANA-nucl inh: -1

How did CCN(CC)S(=O)(=O)c1ccc(NC(=O)CCn2c(=O)oc3ccccc32)cc1 do in these assays?
BasE inh: -0.6; LANA-nucl inh: -0.87

How did COc1ccccc1OCc1nc(=S)[nH][nH]1 do in these assays?
BasE inh: 3.5

The list is partial; the hit share may differ from the screen's.
